RecA splice inh: blocks M. tuberculosis RecA intein splicing; cell-free RecA intein splicing, fluorescence; inhibition, %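 (about 9 µM by stock and volumes)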; actives 0.75% (n = 290,000); in the data active = inhibition above about 30%; inconclusive = no clear call, values can overlap the other calls;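 note: 0% = vehicle wells and 100% = reference inhibitor control wells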
Target sequence (P9WHJ3 whole entry, looked up, canonical isoform): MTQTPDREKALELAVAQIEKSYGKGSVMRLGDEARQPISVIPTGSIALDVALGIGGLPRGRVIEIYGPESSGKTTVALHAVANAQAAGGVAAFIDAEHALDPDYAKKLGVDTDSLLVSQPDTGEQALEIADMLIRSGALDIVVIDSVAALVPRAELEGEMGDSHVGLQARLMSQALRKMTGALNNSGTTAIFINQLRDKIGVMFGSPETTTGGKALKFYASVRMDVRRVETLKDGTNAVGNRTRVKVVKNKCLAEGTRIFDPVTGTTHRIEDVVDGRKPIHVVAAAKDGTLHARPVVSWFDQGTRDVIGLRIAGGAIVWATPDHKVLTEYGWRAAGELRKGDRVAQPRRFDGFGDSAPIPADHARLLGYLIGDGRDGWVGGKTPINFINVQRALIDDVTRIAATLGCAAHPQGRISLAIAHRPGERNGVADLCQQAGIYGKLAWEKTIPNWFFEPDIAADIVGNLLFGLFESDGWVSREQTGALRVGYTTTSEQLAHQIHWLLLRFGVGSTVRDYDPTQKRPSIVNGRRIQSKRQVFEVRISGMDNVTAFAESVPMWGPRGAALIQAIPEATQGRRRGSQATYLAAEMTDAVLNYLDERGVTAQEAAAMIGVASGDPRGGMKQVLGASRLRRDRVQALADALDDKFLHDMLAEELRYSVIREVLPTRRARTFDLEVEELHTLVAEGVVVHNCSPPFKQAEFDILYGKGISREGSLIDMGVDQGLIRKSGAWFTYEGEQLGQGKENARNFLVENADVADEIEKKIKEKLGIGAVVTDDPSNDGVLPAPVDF
Arbovirus anti: arbovirus infection inhibition; arbovirus infection cell-based antiviral screen; inhibition, % at 10 µM; actives 0.37% (n = 200,000); AID 1251;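 active = inhibition from about 30%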;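 note: bluetongue infection of BSR cells; cell survival read as ATP light after 72 h; 0% = infected wells without compound and 100% = uninfected wells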
YopH inh: inhibitors of Yersinia enterocolitica YopH tyrosine phosphatase; fluorescence Ex485/Em525; inhibition, %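 (about 10 µM by stock and volumes)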; actives 0.16% (n = 140,000); AID 898;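 active = inhibition of 50% or more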;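 note: controls were vehicle for no effect and minimum signal wells for full effect; inactives centre near -20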
Mtb betalactam: beta-lactam sensitization of Mtb H37Rv | inhibition, % at 25 µM | actives 0.27% (n = 330,000) | M. tuberculosis H37Rv growth with meropenem, percent inhibition; hits of this screen are not shown here;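 active = about 74% or more and at least 40 points above the plate without the antibiotic, then above 30% in a dose series; inconclusive = first-round hits that could not be retested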;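 note: growth measured after seven days incubation then overnight dye step; 0% = bacteria only wells and 100% = bacteria with antibiotic; twin plates without the antibiotic show which effects depend on it; some results filed as inactive read as strong as hits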
Mtb growth: M. tuberculosis H37Rv growth inhibitors, H37Rv strain (AID 1626); actives 0.95% (n = 220,000); M. tuberculosis H37Rv growth inhibition; higher % means a stronger effect; inhibition, % at 10 µM; hits with a dose series show IC50 in µM;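 active = confirmed in a dose series; inconclusive = inhibition above 80% but not taken into the dose series; inactive = below 80% or under 30% at every dose of the series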;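 note: bacteria incubated seven days before Alamar blue readout; 0% = bacteria only wells and 100% = bacteria with antibiotic wells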
Arbovirus anti repeat: recorded beside Arbovirus anti, whose call it bears; inhibition, %; measured here: 10K subset replicate screen; many hits read low in the repeat;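 first of two repeat runs on a subset; 0% = infected and 100% = uninfected wells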
* marks the source's active call; other numbers are inactive results; ? = inconclusive; / = no result given.

A first look (three entries):
SMILES | RecA splice inh | Arbovirus anti | YopH inh | Mtb betalactam | Mtb growth | others
COc1cc(SC)ccc1C(=O)OCc1nc2ccsc2c(=O)[nH]1 | -0.4 | / | / | 3 | /
O=C(COC(=O)c1cc(S(=O)(=O)N2CCOCC2)c(Cl)cc1Cl)Nc1ncc(C(F)(F)F)cc1Cl | / | -4 | -9 | -7 | -4%
Cn1c(=O)c2c(nc(-n3ccnc3)n2Cc2ccc(Cl)cc2Cl)n(C)c1=O | -0.6 | 1 | -40 | -6 | -3% | Arbovirus anti repeat=2

This part in full, from the start:
SMILES | RecA splice inh | Arbovirus anti | YopH inh | Mtb betalactam | Mtb growth | others
COc1cc(SC)ccc1C(=O)OCc1nc2ccsc2c(=O)[nH]1 | -0.4 | / | / | 3 | /
O=C(COC(=O)c1cc(S(=O)(=O)N2CCOCC2)c(Cl)cc1Cl)Nc1ncc(C(F)(F)F)cc1Cl | / | -4 | -9 | -7 | -4%
Cn1c(=O)c2c(nc(-n3ccnc3)n2Cc2ccc(Cl)cc2Cl)n(C)c1=O | -0.6 | 1 | -40 | -6 | -3% | Arbovirus anti repeat=2
O=C(COC(=O)CCN1C(=O)/C(=C\C=C\c2ccccc2)SC1=S)Nc1ccc(Br)cc1 | 6.7 | -10 | / | 8 | 1%
COc1ccc(S(=O)(=O)N(C)c2ccc(C(=O)N3CCN(C)CC3)cc2)cc1 | 0.9 | / | / | -5 | /
COC(Cn1c(C)c(C(C)=O)c(C(C)=O)c1C)OC | 0.1 | 0 | -153 | -3 | /
O=C1Nc2ccccc2C1(O)C/C(=N/O)c1ccccc1 (stereo not given) | 6.7 | 20 | / | -1 | -2%
COCCNC(=O)c1ccc(-n2c(SCc3ccncc3)nc3ccccc3c2=O)cc1 | 0.0 | -3 | / | -9 | 1%
CN(C(=O)c1cccc(C#N)c1)c1nnc(-c2ccncc2)s1 | / | 7 | -39 | / | 1%
O=c1cc(-c2ccco2)nc(SCc2cccc(Cl)c2)[nH]1 | -0.1 | / | / | -7 | /
CCC(C)NC(=O)COCc1cc(-c2ccc3c(c2)OCO3)on1 (stereo not given) | -4.3 | / | / | 6 | /
CC(C)CCNC(=O)CN1C(=O)CN=C(c2ccccc2)c2ccccc21 | 0.1 | / | / | -12 | -2%
COc1cc(NC(=O)C23CC4CC(C2)CC(n2nnc(C)n2)(C4)C3)c(OC)cc1Cl | 4.4 | -3 | -33 | ? | -1%
Cc1coc(NC(=O)CSc2nc(-c3ccncc3)cc(C(F)(F)F)c2C#N)n1 | -0.4 | 14 | 24 | 5 | -7%
CC(=O)OC1=Cc2c(ccc3ccc(=O)oc23)OC1(C)C | -11 | 0 | 4 | 97 | 0%
COc1ccc(NC(=O)CC2C(=O)N(c3ccc(Cl)cc3)C(=S)N2CCc2ccncc2)cc1 (stereo not given) | 2.2 | -1 | -25 | -12 | 5%
COc1ccc(CCNC(=O)C2CCC(=O)N(C3CCCCCC3)C2)cc1 (stereo not given) | 2.3 | / | / | 2 | /
CC(C)OC(=O)c1cc2c(ccn2C)n1CC(=O)N(Cc1ccccc1)c1ccccc1 | 5.1 | -22 | -17 | 14 | 14%
COc1ccc(NC(=O)/C(=C/c2ccc(OC(C)=O)c(OC)c2)NC(C)=O)cc1 | -2.6 | 5 | -23 | 2 | 3%
O=C(Cn1cnc2sc3c(c2c1=O)CCCC3)NCC(=O)Nc1c(F)cccc1F | 0.6 | / | / | 94 | /
O=C(c1cccs1)N1CCN=C1SCc1ccccc1F | -9.6 | 2 | / | 0 | -6%
CCOC(=O)CN(c1cc([N+](=O)[O-])ccc1OC)S(C)(=O)=O | -2.3 | 3 | / | -5 | 1%
CCCn1c(O)c(N=NC(=O)CNC(=O)Cc2ccc(OC)cc2)c2ccccc21 | 0.5 | / | / | -3 | /
CC(=O)Oc1ccccc1/C=C/c1ccc2ccccc2[n+]1C | -1.3 | / | / | 7 | /
COc1ccc([N+](=O)[O-])cc1NC(=O)CCSCCc1ccccn1 | -10 | 2 | / | -3 | 4%
Cc1ccc(NC(=S)N(C)N)cc1Cl | 0.8 | 8 | / | 2 | 4%
O=C(NCC1CCCO1)c1cc(C(=O)c2ccc(Cl)cc2Cl)c[nH]1 (stereo not given) | 0.1 | 6 | / | 2 | 2%
COc1ccc(NC(=O)/C=C/c2cc(Br)ccc2OC)cc1 | 0.7 | -8 | -10 | -4 | 3%
Cn1nccc1C(=O)N1CCCC(C(=O)c2cccc3ccccc23)C1 (stereo not given) | 1.7 | 11 | / | 1 | -1%
CCOC(=O)NC(=O)CN1C(=O)NC(C)(c2ccccc2)C1=O (stereo not given) | -5.0 | 3 | -39 | 8 | -5%

In the list so far, these contain a CF3 group:
SMILES | RecA splice inh | Arbovirus anti | YopH inh | Mtb betalactam | Mtb growth | others
O=C(COC(=O)c1cc(S(=O)(=O)N2CCOCC2)c(Cl)cc1Cl)Nc1ncc(C(F)(F)F)cc1Cl | / | -4 | -9 | -7 | -4%
Cc1coc(NC(=O)CSc2nc(-c3ccncc3)cc(C(F)(F)F)c2C#N)n1 | -0.4 | 14 | 24 | 5 | -7%

Among those listed so far, these contain a cyano group.
SMILES | RecA splice inh | Arbovirus anti | YopH inh | Mtb betalactam | Mtb growth | others
CN(C(=O)c1cccc(C#N)c1)c1nnc(-c2ccncc2)s1 | / | 7 | -39 | / | 1%
Cc1coc(NC(=O)CSc2nc(-c3ccncc3)cc(C(F)(F)F)c2C#N)n1 | -0.4 | 14 | 24 | 5 | -7%

New compounds follow
SMILES | RecA splice inh | Arbovirus anti | YopH inh | Mtb betalactam | Mtb growth | others
Cn1c(Cn2c(=O)sc3ccccc32)nnc1SCC(=O)Nc1cccc(F)c1 | / | -1 | -41 | 5 | -1% | Arbovirus anti repeat=2
O=C(O)c1ccc(NS(=O)(=O)c2ccc(NC(=O)c3ccccc3Cl)cc2)cc1 | 0.4 | / | / | -13 | /
Cc1cc(=O)n2[nH]cc(C(=O)O)c2n1 | 0.7 | 1 | 12 | -7 | -3%
COC(=O)Cc1c(C)nc2nc(-c3ccco3)[nH]n2c1=O | -2.9 | -2 | -18 | 0 | -2%
CC1CCN(CCc2nc3cc(NC(=O)COc4ccc([N+](=O)[O-])cc4)ccc3n2C)CC1 | 0.0 | / | / | -8 | /
CC1c2c([nH]c3ccccc23)CCC1C(=O)O (stereo not given) | -12 | 2 | -25 | 4 | 3%
COC(C[C@H](O)CC(=O)[C@H](C)OCc1ccccc1)OC | -0.5 | / | / | / | -10%
CC1(C)C2CC=C(/C=N/NC(=O)c3ccc(O)cc3)C1C2 (stereo not given) | 1.8 | 4 | -12 | 25 | 2%
COc1ccc(NC(=O)CN(C)C(=O)CNC(=O)C2CCCCC2)cc1 | -1.9 | / | / | -7 | /
COc1ccc(-c2cc(C(F)F)n3ncc(C(=O)N4CCN(C)CC4)c3n2)cc1 | -23 | 12 | -18 | -3 | -9%
O=C(CCC(=O)Nc1ccccc1Cl)N/N=C/c1ccccc1 | 2.7 | -5 | 8 | -7 | -2%
O=C(Nc1ccc(F)cc1F)N1CCN(C/C=C/c2ccccc2)CC1 | -2.2 | 4 | -22 | -6 | -1% | Arbovirus anti repeat=-2
COc1ccc(C(=O)CSc2nc3[nH]ncc3c(=O)[nH]2)cc1 | -6.0 | 3 | / | -9 | -8%
Cc1ccnc(NC(=O)c2ccc([N+](=O)[O-])o2)c1 | -1.4 | -14 | -23 | 100 | 5%
CCC(=O)Nc1c2c(nn1-c1ccc(OC)cc1)CS(=O)C2 (stereo not given) | 0.8 | 4 | -42 | -6 | -1% | Arbovirus anti repeat=0
Cc1ccc(NC(=S)NC(=O)c2ccc(-c3ccccc3)cc2)cc1 | -1.6 | / | -18 | 98 | ?
CCC(C)(C)NC(=O)CN(C(=O)C(=O)Nc1ccc2c(c1)OCCO2)C1CC1 | -0.6 | / | / | -1 | /
COc1ccc(CNC(=S)Nc2cc(OC)ccc2OC)cc1 | -0.7 | 7 | -22 | -1 | -2%
CC(C)c1ccc(OCCCN2CCCC2)cc1 | -0.1 | / | / | 2 | /
COC(=O)c1sc2nc(CN3CCN(c4ccc(OC)cc4)CC3)[nH]c(=O)c2c1C | 4.1 | 3 | -36 | 15 | 5%
COc1cc2nc(NC(=O)c3ccco3)sc(=O)c2cc1OC | 1.0 | / | / | -1 | -7%
CCc1ccc(CN2CCC(n3nccc3NC(=O)Cc3ccccc3)CC2)o1 | -1.7 | / | / | -3 | /
COc1ccc(OC)c(C(=O)NC(CC(N)=O)c2ccc(N3CCC(Cc4ccccc4)CC3)c([N+](=O)[O-])c2)c1 (stereo not given) | 7.3 | / | / | 4 | /
CCOc1ccc(NC(=S)NCc2ccc3c(c2)OCO3)cc1 | 1.4 | / | / | -16 | 10%
COC(=O)CCCCCNC(=S)Nc1ccc2[nH]c(=O)[nH]c2c1 | -1.0 | / | / | 0 | -7%
CC(=O)c1ccc(S(=O)(=O)Nc2cccc(-n3cnnn3)c2)cc1 | -0.4 | / | / | -13 | /
Cc1cc(OCc2ccc([N+](=O)[O-])cc2)c2c3c(c(=O)oc2c1)CCCC3 | -0.4 | -4 | -37 | 1 | /
O=C(NNC(=O)c1cc([N+](=O)[O-])ccc1Cl)c1cccnc1 | -2.6 | / | / | 10 | /
CCOC(=O)C(NC(=O)Nc1ccc(O)cc1)(c1ccccc1)C(F)(F)F (stereo not given) | 0.1 | 5 | -19 | 2 | 4%
C=CCN1CCN(C(CC(C)C)c2nnnn2CCOC)CC1 (stereo not given) | / | 4 | -33 | 9 | -6%
CCOC(=O)c1cc(NC(=O)C2C3CCC(O3)C2C(=O)O)cc(C(=O)OCC)c1 (stereo not given) | -0.6 | 8 | -24 | 3 | -4%
COc1cccc(C(=O)n2cnnc2N)c1OC | 0.1 | -7 | -7 | 5 | -7%
CCOC(=O)CNC(=O)CSc1nc(-c2ccc(C)cc2)ns1 | 2.8 | 11 | / | 100 | ?
COC(=O)COc1cccc(-n2cnnn2)c1 | 0.1 | 3 | -38 | -12 | -1%
COc1cc2cc(CN(CCO)S(=O)(=O)c3ccccc3)c(=O)[nH]c2cc1OC | -0.7 | -1 | -23 | 0 | -1%
CCSS(=O)(=O)c1cccc2cccnc12 | -3.9 | / | / | 13 | -5%
O=C(CSc1n[nH]c(=O)n1-c1ccc2c(c1)OCCO2)Nc1ccccc1 | -2.0 | / | / | -2 | 3%
Cc1ccc2c(CNCc3ccco3)cc(=O)oc2c1 | 0.3 | 0 | -144 | 1 | -12%
CCCCn1c(O)c(C=NCc2ccc3c(c2)OCO3)c(=O)[nH]c1=O | 0.1 | / | / | 1 | 6%
CCCn1c(SCC(=O)Nc2ccccc2N2CCOCC2)nc2c1c(=O)n(C)c(=O)n2C | -0.5 | 10 | -14 | -6 | -4%
CCN(Cc1ccc(OC)c(COC)c1)CC1CCCN(CCc2cccc(F)c2)C1 (stereo not given) | 2.5 | / | / | 7 | /
CCn1c(Cc2ccc(OC)cc2)nnc1SCc1nc2ccccc2c(=O)[nH]1 | 3.4 | 16 | / | 2 | -3%
Cc1ccc(NC(=O)CSc2nnc(-c3cccs3)o2)cc1S(=O)(=O)N(C)C | 0.1 | -1 | / | -6 | 2%
Cc1cc2cc(CNC(=O)c3ccc(Br)o3)ccc2n1C | 18 | -3 | / | 96 | 29%
CN(C(=O)CN(C)S(=O)(=O)c1ccc(F)cc1)c1c(N)n(Cc2ccccc2)c(=O)[nH]c1=O | -0.2 | / | / | -1 | /
CC(=O)N1CCc2cc(S(=O)(=O)CCC(=O)N3CCN(c4ccccc4F)CC3)ccc21 | -61 | / | / | 3 | /
O=C(c1cc(N2CCCCC2)nc2ccccc12)N1CCOCC1 | -2.0 | 1 | -13 | -7 | -10%
Cc1ccc(NC(=S)NC(=O)c2cncc(Br)c2)c(C)c1 | 2.3 | / | / | 0 | /
O=C(COC(=O)CCC(=O)c1cccs1)NC(=O)c1ccc(OC(F)F)cc1 | -2.0 | 8 | / | -11 | 0%
CC1=CC2=NC(=O)CC(C)(C(=O)N(CC(=O)NC3CCCC3)Cc3ccccc3)N2C=C1 (stereo not given) | -2.7 | / | / | -4 | /
O=C(Nc1ccc(Br)cc1)c1ccc(Br)c(S(=O)(=O)Nc2cccnc2)c1 | -0.7 | 1 | -26 | 5 | -2%
OCCC1CN(Cc2nc3ccccc3s2)CCN1CCc1ccccc1 (stereo not given) | 2.8 | -5 | / | -4 | 3%
CC(=O)Nc1c(Cl)n(C(C)=O)c2ccccc12 | 16 | -11 | -16 | -4 | -5%

Screening results from PubChem BioAssay.

An excerpt. The share of hits here may be higher or lower than overall.
